Bioassay records deposited in PubChem by Fisher Drug Discovery Resource Center.
NPYLR7 agonist: mosquito NPYLR7 agonism; HEK293T NPYLR7/Galpha15, GCaMP6s calcium fluorescence; activation, % at 10 µM; 270,000 compounds, 0.15% hits; in the data active means activation above about 40%;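 further: 0% = vehicle and 100% = reference agonist at the receptor; some compounds past the cut are filed as inactive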
NPYLR7 agonist max-min: also measured in NPYLR7 agonist; calls as there; activation, %; measured here: Max-Min RFU normalised activation; some inactives read as strong as hits;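 span of the calcium signal over five minutes; 0% = vehicle and 100% = native peptide agonist; compound fluorescence can raise it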
Starred values were filed as active, the others as inactive; & = joins results of further samples. Some of the compounds tested; the hit share may differ from the screen's.

SMILES	NPYLR7 agonist	NPYLR7 agonist max-min
CCOC(=O)c1nn(-c2ccccc2C)c(=O)cc1OCC(=O)Nc1ccc(C)c(F)c1	11	5
CCc1cc2c(=O)n(NC(=O)CC3CC4CCC3C4)cnc2s1 (stereo not drawn)	-2	-1
CN(C(=O)Cn1ncc2ccccc21)C1CCCN(CCCc2ccccc2)C1 (stereo not drawn)	15	5
O=C(CCC(=O)N1CCOC2(CNCCOC2)C1)NC1CCCC1 (stereo not drawn)	2	-2
CC(C)CC(=O)N(Cc1csc(COc2cc(Cl)ccc2Cl)n1)C1CC1	-3	-2
CCc1ccccc1-c1nccc(NC)n1	-2	-1
CCc1nccn1CCC(=O)N1CCC(Cc2nncn2-c2ccccc2)CC1	-2	-5
O=C(O)/C=C/C=C/c1ccccc1	-11	-17
CCCc1nnc2n1N=CCS2	10	14
NCC(CO)Cc1ccccc1F (stereo not drawn)	18	7
CCN(CC)S(=O)(=O)N1CCN(C(=O)c2ccc3c(c2)C(=O)c2ccccc2-3)CC1	2	0
NS(=O)(=O)c1ccc(NC(NC(=O)c2ccco2)C(=O)c2ccc(Cl)cc2)cc1 (stereo not drawn)	45*	44*
CC1(C(=O)NCC2CCCCC2)CCN1CCc1ccccc1 (stereo not drawn)	-2	-5
CCc1cccc2c(C(CC(=O)NCc3ccccn3)c3cccc(OC)c3OC)c[nH]c12 (stereo not drawn)	5	17
CC(C)NC(=O)C1CCN(C2CCN(C(=O)C3=NNC(=O)CC3)CC2)CC1	20	10
CCc1nc2ccc(C(=O)N(C)Cc3ccco3)cn2c1N(C=O)CC	-6	-11
O=C(c1ccc(-n2cnnn2)cc1)N1CC[C@@H](c2ccc(F)cc2)[C@H](O)C1	-3	2
Nc1cccc(Cc2nc3cc(Cl)ccc3o2)c1	-5	-9
COc1ccc(NC(=O)C2CCCN2CCOc2cccc(C#N)c2)cc1 (stereo not drawn)	-1	-5
COc1ccc(CC2CN(Cc3nccs3)CCO2)cc1 (stereo not drawn)	6	2
CCc1nnc(NC(=O)c2cc(C)no2)s1	12	15
CN(C)c1ccc(C(N)P(=O)(O)O)cc1 (stereo not drawn)	-7	-12
CCCCNc1nc2c(s1)C[C@@H]1[C@](C)(CO)[C@H](O)CC[C@@]1(C)[C@@H]2CC(=O)NCCN1CCOCC1	-11	-16
O=C(c1ccc(N2CCC(NCCc3cccs3)CC2)cc1)N1CCCC(CO)C1 (stereo not drawn)	6	1
CC(C)n1ccnc1CN1CCC(CNC(=O)c2ccsc2)C1 (stereo not drawn)	12	8
CC(C)CC(=O)N1CCN(C(=O)c2ccccc2Nc2ccccc2)CC1	10	12
COC(=O)c1cccc(CN2C(=O)SC(Nc3cccc4ccccc34)C2=O)c1 (stereo not drawn)	-2	-6
COC(=O)NNCc1cc(=O)[nH]c(=O)[nH]1	-6	-9
O=C(Nc1cc(Cl)ccc1Cl)c1cnn2c(C(F)(F)F)cc(-c3cccs3)nc12	4	4
O=C(c1cccc2cc[nH]c12)N1CCN(Cc2ccc(-c3noc(-c4ccccc4)n3)cc2)CC1	1	-2

6 compounds from above, arranged by molecular weight, highest first:
SMILES	NPYLR7 agonist	NPYLR7 agonist max-min
CC(C)CC(=O)N(Cc1csc(COc2cc(Cl)ccc2Cl)n1)C1CC1	-3	-2
COC(=O)c1cccc(CN2C(=O)SC(Nc3cccc4ccccc34)C2=O)c1 (stereo not drawn)	-2	-6
O=C(c1ccc(-n2cnnn2)cc1)N1CC[C@@H](c2ccc(F)cc2)[C@H](O)C1	-3	2
CCc1nc2ccc(C(=O)N(C)Cc3ccco3)cn2c1N(C=O)CC	-6	-11
O=C(CCC(=O)N1CCOC2(CNCCOC2)C1)NC1CCCC1 (stereo not drawn)	2	-2
CC(C)n1ccnc1CN1CCC(CNC(=O)c2ccsc2)C1 (stereo not drawn)	12	8

Other entries follow.
SMILES	NPYLR7 agonist	NPYLR7 agonist max-min
CN(CCc1ccccn1)C(=O)CCC1CCCN(c2nc3ccccc3s2)C1 (stereo not drawn)	4	0
CCCCn1c(N)c(CN2CCN(Cc3ccc(Cl)cc3)CC2)c(=O)n(C)c1=O	9	6
CCCCCCCC(=O)N1CCCC(C(=O)NC2CCCC[C@H]2NC(=O)c2ccc(F)cc2)C1 (stereo partly drawn)	21	24
Cc1ccc2[nH]c(C(=O)O)c(-c3c(-c4ccccc4)ncn3CCCO)c2c1	24	10
O=c1oc2cc(Cl)ccc2n1CN1CCCN(c2ccc(C(F)(F)F)cn2)CC1	8	11
O=C(Nc1cccc(-c2ccco2)c1)C1CCN(C(=O)/C=C/c2ccccn2)CC1	6	-4
COc1ccc2sc(C(=O)Nc3ccc(F)cc3)c(Cl)c2c1	4	0
Cc1cc(C)c(CNCc2ccc(CN3CCCC3)cc2)c(C)c1	1	3
O=C(NCc1ccc(CN2CCCC2)cc1)c1ccc(C(F)(F)F)[nH]c1=O	7	4
COc1cccc(-c2nc(-c3c[nH]c4ccccc34)cs2)c1OC	8	4
O=C(CN(C(=O)Nc1ccccc1C(F)(F)F)C1CC1)N(CCc1c[nH]c2ccccc12)Cc1ccc(C(F)(F)F)cc1	14	9
Cc1cccc(-n2c(-c3ccc(Cl)cc3)cc(C(=O)N3CCC(n4c(=O)[nH]c5ccccc54)CC3)c2C)c1	-3	3
COc1cccc(C(=O)Nc2ccc(-n3nc(OCc4ccc(F)cc4)nc3-c3ccc(C(F)(F)F)cc3)cc2)c1	-1	4
Cc1cc(-c2nc(C3(c4ccc(F)cc4)CCOC3)no2)n[nH]1 (stereo not drawn)	10	6
CC(NC(=O)CCn1c(=O)oc2ccccc21)c1ccc(F)c(F)c1 (stereo not drawn)	2	0
CCCC(C)NC(=O)CSc1nc2ccccc2c(=O)n1CC(C)C (stereo not drawn)	15	5
CN(Cc1ccccc1CNC(=O)C1CNC(=O)N1)C1CCCCC1 (stereo not drawn)	4	4
O=C(c1cn(Cc2ccc(F)cc2)nc1OCc1ccc(F)cc1)N1CCCC1	2	-6
CNC(=O)c1cc(-c2c(F)cccc2OC)ccc1Cl	-1	4
NC(=O)c1cnc(NC(=O)c2ccccc2Br)s1	19	8
CC(NC=C1CCCCC1=O)C1CC2CCC1C2 (stereo not drawn)	-12	-16
Cc1noc(-c2ccccc2Cl)c1C(=O)NCCc1ccc(F)cc1	-1	2
CCOCC(=O)N1CCN(C(=O)c2cn(CC3CCCO3)cc3c(=O)n(-c4ccccc4)nc2-3)CC1 (stereo not drawn)	6	4
Cc1ccc2oc(C(=O)OCC(=O)N3CCNC3=O)c(C)c2c1	13	5
O=C(Nc1cnc2ccccc2c1)C1CCCN1S(=O)(=O)c1ccc(Cl)cc1 (stereo not drawn)	6	4
Cc1cccc(/C=C/c2nc(-c3cc(C(=O)O)co3)cs2)c1	0	2
CC1CN(CC2CN(C)CCO2)CCN1CCOCC(F)(F)F (stereo not drawn)	48	33
CCC(=O)Nc1cccc(C2SCC(=O)N2c2cccc(OC)c2)c1 (stereo not drawn)	20	25
O=CNc1cc(-c2cccc(F)c2)cn2c(-c3ccc(F)c(Cl)c3)cnc12	0	-5
COc1ccc(N2CC(NC(=O)Nc3nc(C)cs3)CC2=O)cc1 (stereo not drawn)	5	2
CNC(=O)CSc1nc(SCC(=O)NC)c2c3c(sc2n1)CC(C)CC3 (stereo not drawn)	-2	-7
COc1ccc(C)c2sc(N(CCCN(C)C)C(=O)c3cc(C)on3)nc12	2	2
CNc1ncccc1CN1CCN(C(=O)c2ccccc2)CC1	8	3
OCC1N=C(c2ccccn2)OC1c1ccccc1 (stereo not drawn)	6	1
Cc1ccc2c(n1)OC(COC(C)(C)C)CN(CC(C)C)C2=O (stereo not drawn)	4	12
COc1cccc(C2c3[nH]c4ccccc4c3CCN2C(=O)c2cc(C)nn2C)c1OC (stereo not drawn)	-4	-5
COCC(=O)N1CCN(Cc2ccc(-c3noc(COC)n3)cc2)CC1	-4	-7
COc1ccc(-c2nccn2Cc2ccccn2)cc1CN1CCCC1	12	1
COc1ccc(OS(=O)(=O)c2ccc(S(C)(=O)=O)cc2)cc1	7	1
c1nc(N2CCCCC2CN2CCOCC2)c2ccsc2n1 (stereo not drawn)	5	4

Part of the list above, as labelled records:
CNc1ncccc1CN1CCN(C(=O)c2ccccc2)CC1
  NPYLR7 agonist = 8; NPYLR7 agonist max-min = 3
OCC1N=C(c2ccccn2)OC1c1ccccc1 (stereo not drawn)
  NPYLR7 agonist = 6; NPYLR7 agonist max-min = 1
c1nc(N2CCCCC2CN2CCOCC2)c2ccsc2n1 (stereo not drawn)
  NPYLR7 agonist = 5; NPYLR7 agonist max-min = 4
COc1ccc(C)c2sc(N(CCCN(C)C)C(=O)c3cc(C)on3)nc12
  NPYLR7 agonist = 2; NPYLR7 agonist max-min = 2

Following part:
SMILES	NPYLR7 agonist	NPYLR7 agonist max-min
O=C(CC1C=CCC1)N1CCOC(CN2CCOCC2)C1 (stereo not drawn)	19	11
O=C(c1ccc(N2CCCS2(=O)=O)cc1)N1CCN(S(=O)(=O)c2ccccc2F)CC1	-6	-8
CCC(COC)NC(=O)c1c(C)noc1-c1cccc(F)c1 (stereo not drawn)	24	8
Cc1nc2ccccc2c(=O)n1N=Cc1ccccc1Cl	-10	-16
O=C1C2=C(N=C3CCCC(=O)C3C2c2cccs2)c2ccccc21 (stereo not drawn)	0	-3
CC(C)C(C)N(Cc1ccco1)C(=O)Cc1ccc(O)c(Cl)c1 (stereo not drawn)	6	0
COc1cccc(-c2cnc(-c3ccc(CNC(=O)COCc4ccccc4)cc3)[nH]2)c1	0	10
Cc1ccc(C(=O)Nc2nnc(CC(C)C)s2)cc1	19	13
COCCn1c(C(=O)Nc2ccc3c(c2)OCO3)cc2c(=O)n(C)c(=O)n(C)c21	-1	0
C/C=C\COC1CCCN(C(C)=O)C1 (stereo not drawn)	-1	-1
Cn1c(C(=O)N2CCCC(N3CCN(c4ccc(F)cc4)CC3)C2)cc(=O)n(C)c1=O (stereo not drawn)	-2	-9
CCN(CC)C(=O)Cn1cc(C(=O)N2CCN(c3nc4ccccc4s3)CC2)nn1	2	1
O=C(CSc1ccc(-c2ccc(-n3ccnc3)cc2)nn1)N1CCCc2ccccc21	0	-7
O=C(CSc1nc2sc3c(c2c(=O)[nH]1)CCCC3)NC1CCCCC1	14	5
Cc1cc(C=NNC(N)=S)c(C)n1CC(F)(F)F	2	2
O=C(Nc1ccc(SCc2ccccn2)nn1)c1cccs1	12	5
Cc1nnc2ccc(OCCNS(=O)(=O)c3ccc(Cl)s3)nn12	7	8
Cc1nnc(SCC(=O)N2N=C3C(=Cc4ccco4)CCCC3C2c2ccco2)s1 (stereo not drawn)	7	14
Cn1c(Cn2c(=O)sc3ccccc32)nnc1SCc1cccnc1	8	7
N#CCN1C(=O)c2ccccc2S1(=O)=O	1&11	4&8
O=c1[nH]c(CSc2nnnn2C2CCCC2)nc2ccccc12	11	12
CCS(=O)C1CCCCC1NC(=O)C1COc2ccccc2C1 (stereo not drawn)	-17	-18
CCN(C(=O)CN1CCN(C)c2ccc(F)cc21)C1CCCCC1	1	-2
O=C(Nc1ccccc1C(=O)N1CCCCCC1)c1ccc[nH]c1=O	16	11
N#CC1C(=N)C(C#N)(C#N)C(c2ccccc2F)C2CCCC=C12 (stereo not drawn)	11	3
Cc1ccc(S(=O)(=O)NC(=O)CSC#N)cc1	-11	-20
CCc1ccc(S(=O)(=O)c2cnc(SCC(=O)NCc3ccccc3)[nH]c2=O)cc1	1	-4
CSCC[C@H](NC(=O)CSc1cc(Cl)ccc1Cl)c1nc2ccccc2[nH]1	-4	-10
COc1ccc(C2CCCN2C(=O)CSCc2ccc(Cl)s2)cc1 (stereo not drawn)	-1	-3
CS(=O)(=O)c1ccc(Br)c(S(=O)(=O)N2CCSCC2)c1	1	5
CCCC[P+](CCCC)(CCCC)Cc1ccc(NC(=O)[C@@H](Cc2ccc3ccccc3c2)NC(=NC2CCCCC2)NC2CCCCC2)cc1	-13	-16
O=S(=O)(OC(C1CCCO1)C(F)(F)F)C(F)(F)F (stereo not drawn)	-2	-5
COc1cc(OC)cc(C(=O)NCc2cccc(-c3ncc(-c4ccc(F)cc4)[nH]3)c2)c1	15	25
CC1(C(=O)NCC2CC2)CCN1C(=O)C1(c2ccccc2)CC1 (stereo not drawn)	2	2
CCOC(=O)c1ccccc1NC(=O)CSc1ccc(-c2ccccn2)nn1	5	-3
O=C(Nc1ccc(F)cc1F)N1CCN(c2ncccn2)CC1	14	5
CN1CCCC2(CCN(C(=O)c3cccc(-c4ncc[nH]4)c3)C2)C1=O (stereo not drawn)	-1	4
Cc1c(N=Cc2ccccc2OC(F)F)c(=O)n(-c2ccccc2)n1C	-4	-10
O=C(CSc1ccc(-c2ccc(-n3cccn3)cc2)nn1)Nc1ccccc1F	-9	-11
